Vif TR-FRET: HIV-1 Vif–A3G interaction blockers – biochemical, TR-FRET, GST-Vif 1-94, biotin-A3G peptide, dose response retest, primary screen (AID 1117319) | TR-FRET GST-Vif / biotin-A3G peptide binding; higher % means a stronger effect; test concentration not given here; strong numbers were not always called active | one-dose inhibition, %; IC50 in µM for titrated hits | 260,000 compounds, 0.57% hits;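 active means above the screen mean plus three standard deviations and confirmed in dose response; inconclusive means results disagree or hit not tested in dose response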;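 further: Vif residues 1-94 fused to GST binding biotinylated APOBEC3G peptide 110-148; 0% = full assay without inhibitor and 100% = GST in place of GST-Vif; retest series ran down from 100 µM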
Beta apoptosis: beta cell apoptosis inhibition; INS-1E cytokine-induced death, ATP luminescence, 48 h; percent of positive-control rescue, neutral wells zero; 300,000 compounds, 0.8% hits; protection from apoptosis, % (test concentration not listed); AID 435005;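 active means all replicates at 75% or more, or half of them and the mean; inconclusive means half reach 75% but not the mean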;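 further: 0% = cytokine-treated negative control wells and 100% = positive control rescue; higher means more ATP so stronger rescue from cytokine killing; wells of about 40 µL received 100 nL stock; the first replicate is given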
Calb FLC: affects C. albicans growth with fluconazole | C. albicans CaCi-2 (fluconazole-resistant clinical isolate) + fluconazole, Alamar Blue growth, 48 h | growth inhibition, % (concentration not given with the values) | 300,000 compounds, 0.57% hits;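 active means most replicates above 75%; inconclusive means exactly half above 75%; inactive means most below 75%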;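 further: all wells also contain fluconazole at 8 µg/ml as a sub-toxic cotreatment; 0% = median of DMSO wells and 100% = median of geldanamycin control wells; wells of about 8 µL received 7.5 nL stock; the first replicate is given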
LANA-H2B inh: blocks KSHV LANA binding to histone H2A/H2B. Q9QR71. inhibition, % (concentration not given with the values). cell-free LANA-H2A/H2B peptide, fluorescence polarization. 320,000 compounds, 0.6% hits; in the data active means inhibition mostly above about 10%, no sharp cut-off; inactive means mostly below about 6.7%;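 further: stock transfer was 7.5 nL into about 10 µL; 0% = median of vehicle wells and 100% = median of positive control wells; one replicate is shown; the record names a cut of 25% in any replicate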
A1 inh: inhibitors of the anti-apoptotic protein A1, read as caspase activation | MEF A1-2A-BIM cells, Caspase-Glo 3/7 luminescence, 3 h; percent of clofoctol response, vehicle zero | caspase activation, % (test concentration not listed) | 330,000 compounds, 0.066% hits | AID 2462;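 active means over half of replicate activation scores above 10%, or exactly half above 10 with the replicate mean above 10; inconclusive means replicate mean below 10 yet half the replicates above 10; inactive means over half of replicates below 10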;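 further: wells of about 30 µL received 50 nL stock; many hits fall short of the cut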
T cruzi inh: blocks replication of Trypanosoma cruzi; T. cruzi beta-gal in NIH3T3, luminescence, 90 h; 300,000 compounds, 1.4% hits; inhibition, % (concentration not given with the values);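 active means mean inhibition across valid replicates above about 55%, limit read from the data; inconclusive means mean below that limit but half or more replicates reach it; inactive means mean below it, under half of replicates reach it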;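 further: signal also drops with host cell toxicity which is not excluded here; 0% = plate median of DMSO wells and 100% = zero luminescence signal; higher percent means less beta-gal luminescence so fewer parasites; stock transfer was 50 nL into about 50 µL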
AF4-AF9 inh: blocks AF4 peptide binding to human AF9 | P42568 | AlphaScreen, biotin-AF4 peptide binding to FLAG-AF9 | AID 651704 | inhibition, % at 10 µM | 350,000 compounds, 0.47% hits;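 active means every replicate reaching a set inhibition limit, whatever the replicate mean, cut at about 25% in these data; inconclusive means mean inhibition reaches that limit but some replicates miss it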;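 further: 0% = plate neutral control median and 100% = total signal loss; the record names both 10 and 1 µM as test concentration; the first replicate is given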
Target sequence (P42568 whole entry, looked up): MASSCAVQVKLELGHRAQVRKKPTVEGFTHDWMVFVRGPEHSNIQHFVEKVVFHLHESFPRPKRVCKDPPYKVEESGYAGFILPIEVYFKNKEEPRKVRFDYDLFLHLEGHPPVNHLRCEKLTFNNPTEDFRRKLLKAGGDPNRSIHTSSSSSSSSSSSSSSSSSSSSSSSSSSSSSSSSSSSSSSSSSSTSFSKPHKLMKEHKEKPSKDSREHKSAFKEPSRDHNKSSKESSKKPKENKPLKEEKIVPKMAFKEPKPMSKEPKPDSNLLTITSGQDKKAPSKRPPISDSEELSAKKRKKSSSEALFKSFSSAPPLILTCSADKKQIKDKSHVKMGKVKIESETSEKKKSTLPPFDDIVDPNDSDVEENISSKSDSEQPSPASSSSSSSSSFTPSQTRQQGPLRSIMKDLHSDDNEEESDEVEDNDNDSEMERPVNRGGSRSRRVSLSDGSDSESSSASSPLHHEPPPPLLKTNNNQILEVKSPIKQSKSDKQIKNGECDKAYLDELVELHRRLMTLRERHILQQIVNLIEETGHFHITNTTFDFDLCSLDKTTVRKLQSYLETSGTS
RanGTP-Impb inh: disruptors of Ran-importin-beta complex formation – biochemical, FRET, CFP-Ran, YFP-importin-beta, homogeneous, primary screen | cell-free CFP-Ran/YFP-importin-beta FRET ratio | inhibition, % (no concentration beside the values) | 300,000 compounds, 1.1% hits;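 active means most replicates above 15%; inconclusive means exactly half above 15%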;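 further: 0% = DMSO wells and 100% = Ran loaded with GDP instead of GTP; wells of about 40 µL received 100 nL stock; the first replicate is given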
* marks the source's active call; other numbers are inactive results; ? = inconclusive; / = not tested or not shown; & = joins results of further samples.

SMILES	Vif TR-FRET	Beta apoptosis	Calb FLC	LANA-H2B inh	A1 inh	T cruzi inh	AF4-AF9 inh	RanGTP-Impb inh
COc1cc(C(=O)NCCNc2nc3ccc(C)cc3cc2C#N)cc(OC)c1OC	7.2%	/	1.5	-1.5	-0.9	-8.3	-5.4	81.2*
CCOC(=O)C1CCN(C(=O)c2ccc(N(C)S(C)(=O)=O)cc2)CC1	1.1%	1.1	40.1	6.6	0.4	-6.9	/	0.2
O=C1NC(C(F)(F)F)(C(F)(F)F)N=C2SC=CN12	4.3%	-3.2	-2.9	-0.7	0.7	1.4	0.3	-2.0
Cc1[nH]c2ccc(Cl)cc2c(=O)c1CN1CCCC1	-11.0%	-2.4	0.1	-3.1	-1.0	-5.7	2.0	-5.8
CS(=O)(=O)c1cccc(-c2nnc(NC(=O)c3ccc4ncsc4c3)o2)c1	-2.5%	/	-1.7	2.4	-1.2	-10.5	-1.0	?
Cc1cccc(NC(=S)N2CCN(S(=O)(=O)c3ccc(F)cc3)CC2)c1	-1.7%	-10.7	0.5	3.4	0.5	-7.9	-3.2	-4.0
O=C(CN1C(=O)C(=O)N(C2CCCC2)C1=O)Nc1cc(Cl)ccc1[N+](=O)[O-]	/	-3.5	/	1.4	0.0	/	-2.6	/
Cc1nn(Cc2ccccc2)c(Cl)c1C(=O)OCC#N	8.2%	-5.1	2.8	-2.4	0.2	7.5	-0.8	-0.9
CCN(CC)S(=O)(=O)c1ccc(NC(=O)CNC2CCCCC2)cc1	-0.9%	-6.9	-5.5	-0.3	0.7	29.5	-7.9	-0.6
CN(CCOc1ccccc1)CC(=O)Nc1ccc([N+](=O)[O-])cc1Cl	-8.2%	-5.9	-25.6	-3.7	0.4	3.2	-0.8	3.3
Nc1nc(SCC(=O)N2N=C3/C(=C/c4ccco4)CCCC3C2c2ccco2)n[nH]1 (stereo not given)	?	-0.2	3.5	-6.1	-0.5	3.3	/	1.7
CC(C)Cc1[nH]c(=O)c(C#N)c2c1COC(C)(C)C2	-1.6%	-2.1	-1.5	7.6	0.3	-19.2	/	10.3
O=C(CN1CCN(c2ccccc2F)CC1)NC(=O)NCc1ccco1	16.6%	-3.5	-5.1	0.7	1.0	-1.7	-1.3	2.0
COc1ccc(NC(=O)Cc2ccc(Cl)cc2Cl)cn1	-9.5%	-2.3	5.6	9.1	0.9	1.6	2.8	4.4
CC(C(=O)O)n1nc2ccccc2n1 (stereo not given)	19.3%	-5.5	-11.8	-2.0	0.5	-3.4	/	-2.2
CN(C(=O)C1CCN(S(=O)(=O)c2cccs2)CC1)C1CCCCC1	-0.9%	-1.4	20.0	-1.5	1.2	-10.9	0.3	5.4
O=C(c1cc(Br)c(Br)s1)N1CCN(c2ccccn2)CC1	/	-2.4	?	-5.3	-0.5	19.9	-0.1	1.7
CN1CCN(C(=O)c2cc3sccc3n2CC(=O)c2ccccc2)CC1	1.1%	-8.8	-17.1	-8.1	0.2	-15.3	/	?
CCn1c(CSc2nc3ccccc3[nH]2)nc2cc(C(=O)O)ccc21	1.2%	-2.7	-1.4	3.2	-0.1	-2.8	/	2.4
CCCCN1C(=O)C(=O)N(CC(=O)Nc2ccc(OC(F)(F)F)cc2)C1=O	1.4%	-3.9	/	1.4	0.6	/	-1.1	/
CCOC(=O)CSc1nnc(-c2ccccc2)o1	0.1%	-1.0	-3.6	0.1	-3.9	-0.9	/	5.7
Cc1ccc(-c2csc(NC(=O)C3CSC4(C)CCC(=O)N34)n2)cc1 (stereo not given)	/	3.4	/	0.9	-0.1	2.7	0.1	5.8
Cc1cc(C(=O)COC(=O)c2ccc(O)cc2O)c(C)n1C(C)C	/	8.1	/	-1.5	0.2	/	2.1	/
CCCCNC(=O)CNC(=S)N(CCCN1CCOCC1)Cc1cccs1	/	1.3	6.7	-4.2	-0.3	-4.9	-1.9	-2.0
Fc1ccc(C(c2nnnn2Cc2cccs2)N2CCN(C3CCCC3)CC2)cc1 (stereo not given)	13.7%	0.9	-2.3	-0.5	0.1	-12.8	/	6.1
O=C(O)c1cc(-c2ccccc2)nc2ccccc12	8.1%	1.4	4.7	-0.3&11.0	-0.9	-10.8	3.6	-1.0
O=C(COc1ccc(Br)cc1)Nc1ccccc1N1CCCC1	1.9%	6.0	?	-0.2	0.9	18.6	2.1	2.2
O=C(CN(Cc1ccco1)S(=O)(=O)c1ccccc1)N/N=C/c1cccc(O)c1	4.8%	5.1	-5.6	-3.0	0.4	-1.3	/	?
Cc1ccc(C)c(OCCn2cc(/C=C(/C#N)C(=O)NCC3CCCO3)c3ccccc32)c1 (stereo not given)	-2.9%	/	3.7	0.5	0.8	15.0	6.9	-6.2
CC(C)C(NC(=O)c1ccccc1Br)c1ccccc1 (stereo not given)	10.8%	-3.8	12.9	-3.1	-0.1	-4.0	-0.8	-0.1
CCOc1ccc(C(=O)Nc2ccccc2NC(C)=O)cc1OCC	1.7%	/	-8.9	10.9	-0.9	0.7	-0.3	-8.0
COc1ccc(OC)c(/C=C2\S/C(=N/NC(=O)c3ccc4ccccc4c3)NC2=O)c1	25.3%	-0.4	-3.9	/	0.3	3.3	-1.4	-6.2
Cn1nc(C(=O)NCc2ccccc2)c2c1-c1ccccc1S(=O)(=O)C2	/	5.6	5.2	-1.3	0.0	0.1	-4.9	2.9
CCN(C(C)=O)c1nnc(CSc2nc3ccccc3s2)s1	?	/	-0.6	/	/	-2.4	/	1.3
CCN(CC)CCN(C(=O)CCS(=O)(=O)c1ccccc1)c1nc2cc3c(cc2s1)OCO3	/	4.2	8.0	-2.5	0.7	59.5*	-1.7	1.3
CC(=O)Nc1ccc(SCC(=O)Nc2cc(C(C)(C)C)nn2-c2ccccc2)cc1	-11.4%	2.9	?	6.9	0.0	6.1	-2.2	2.7
Cc1ccc(C(=O)N2CCCC(N3CCN(c4ccccc4C)CC3)C2)c(=O)[nH]1 (stereo not given)	6.0%	-6.8	-2.0	2.1	-0.8	8.7	1.2	3.1
CCn1c(Oc2ccccc2)nc2c1c(=O)n(C)c(=O)n2C	0.6%	-7.8	4.3	-2.3	0.2	-1.3	-1.5	4.4
O=C(NCCCN1CCCCC1)c1ccc2c(c1)NC(=O)c1ccccc1S2	/	-5.2	-12.1	2.6	3.4	7.6	5.2	0.0
O=C(CN1C(=O)C2CC=CCC2C1=O)Nc1nc(-c2ccc(F)c(F)c2)cs1 (stereo not given)	/	-2.4	/	-0.5	-0.4	/	-7.2	/
CC(=O)N(Cc1cc(=O)[nH]c2ccccc12)c1cccc(C)c1	9.5%	2.7	-0.9	-1.0	-0.1	-10.9	/	-0.7
CNC(=S)NCCc1ccccc1	30.9%	-11.4	-5.5	-3.3	0.4	-13.3	2.9	0.9
Cc1cc(C(=O)NNC(=O)c2ccc(Cl)cc2)no1	15.8%	-2.3	-5.4	0.9	1.1	-4.2	-8.3	0.2
CCCn1c(/C=C/c2ccccc2)nc2ccccc21	-9.1%	15.6	32.6	2.0	-7.3	/	/	3.3
O=C(CNS(=O)(=O)c1ccccc1)OCC(=O)c1ccc(F)cc1	/	-2.0	-0.5	1.2	0.3	-11.2	-11.7	?
CC(Oc1ccccc1)C(=O)N1CCc2ccccc2C1 (stereo not given)	/	/	-28.3	-4.7	0.0	2.7	-4.4	0.5
O=C(CNCc1ccc(Cl)cc1)Nc1ccc(C(=O)N2CCCCC2)cc1	/	-4.1	19.8	-4.5	-1.9	16.1	0.9	11.0
COc1ccc(CCNC(=O)CCCCCN2C(=O)c3ccccc3C2=O)cc1OC	/	0.7	16.4	-1.9	0.0	-0.2	-0.1	?
CCOc1ccc(Cn2c(=O)sc3ccccc32)cc1	/	-0.7	3.8	-6.9	0.6	0.6	-3.9	1.3
Cc1cc(C(=O)N2CCN(C(c3ccccc3)c3ccccc3)CC2)no1	-7.9%	-6.5	2.1	8.4	0.6	-2.8	/	5.6
Later entries
SMILES	Vif TR-FRET	Beta apoptosis	Calb FLC	LANA-H2B inh	A1 inh	T cruzi inh	AF4-AF9 inh	RanGTP-Impb inh
CCCCOc1ccc(C(=O)OCC(=O)NC2CCCC2)cc1	-1.0%	1.6	9.5	-3.9	0.6	17.4	-1.7	-3.2
Cc1ccc(NC(=O)CS(=O)CC(=O)NC23CC4CC(CC(C4)C2)C3)cc1 (stereo not given)	/	-8.0	6.9	4.2	0.8	-10.6	-15.5	1.6
CN(C(=O)COC(=O)c1cc[n+]([O-])cc1)c1ccccc1	/	-6.3	3.8	3.0	0.4	-1.2	-1.1	0.0
O=C(NCCc1ccccc1)C(=S)N1CCCCC1	-9.4%	-0.9	1.4	3.0	1.1	-10.0	0.1	-0.5
COc1cc(NC(=O)C2CCCN(c3ncccn3)C2)cc(OC)c1 (stereo not given)	-4.8%	-6.7	-0.2	-0.8	-0.3	24.7	/	1.3
CCn1ncc(Br)c1C(=O)Nc1cccc(C(C)=O)c1	-3.2%	1.4	-4.7	1.7	0.2	-2.7	-1.7	-0.9
CC(=O)c1c(C)[nH]c(C(=O)NCc2ccccc2Cl)c1C	-4.9%	-0.5	-17.3	4.4	-0.7	11.1	/	5.0
CN(C)CCn1cnc2c1c(=O)n(C)c(=O)n2C	/	-1.4	-0.5	5.1	0.4	-21.7	-0.5	-1.6
CCC(C)NC(=O)CS(=O)Cc1nc(-c2cccc(OC)c2)oc1C (stereo not given)	1.4%	-10.0	-2.0	5.4	-0.3	-2.0	-11.9	3.9
Cc1cccc(OCC(=O)NCCCNC(=O)c2ccncc2)c1	-7.6%	2.3	-0.2	-3.2	0.8	-8.9	0.6	-1.1
Cc1c(Cl)c(=O)oc2cc(OC(C)C)ccc12	-10.2%	-5.6	-8.5	3.9	-0.4	-14.0	4.3	2.5
Cc1ccc(NCc2n[nH]c(=S)n2-c2ccccc2)cc1Cl	-0.8%	-2.3	8.6	-0.7	-0.1	-4.0	-5.1	1.2
CCn1nnnc1NC(=O)c1cccc(OC)c1	16.0%	0.0	-1.1	2.5	-0.1	-18.3	-4.0	3.9
CCCCCCCCN1[C@@H](CC(=O)OCC)c2ccc(C(F)(F)F)cc2S1(=O)=O	/	6.7	-8.6	-0.8	0.4	61.4*	-27.1	1.8
COCc1c(C(=O)OCC(=O)NCCN2C(=O)CSC2=O)oc2ccccc12	/	-4.0	0.3	2.7	-0.1	-12.9	/	-2.8
COC(=O)c1cccc(NC(=O)c2cnn(C)c2)c1	/	/	2.4	-0.5	-0.2	0.4	-1.7	2.2
CC(=O)Nc1cccc(NC(=O)CCCC2CCCCC2)c1	/	-5.6	4.2	0.9	0.7	-8.3	-3.0	0.9
Oc1cc(NCCc2cccnc2)cc2cccnc12	/	-4.7	/	7.8	0.1	/	?	/
CCS(=O)(=O)N1CCCC(C(=O)NC2CCCCC2C)C1 (stereo not given)	?	0.1	-3.7	2.9	0.3	-6.1	/	-0.7
COCCNC(=O)C(c1ccc(F)cc1)N(C(=O)CCC(=O)Nc1nccs1)c1ccc(C)cc1 (stereo not given)	/	5.9	-2.6	2.9	-0.2	2.5	-1.9	1.2

Compound activity: PubChem, several laboratories
